Bioassay records as filed in PubChem.
ClpP mod: qHTS Assay for Activators of ClpP; Potency, µM (titrated, usually from 57.5 µM), without a hit: at the top dose activity change, negative = active; AID 651965, 2013; ATP-dependent Clp protease proteolytic subunit (Bacillus subtilis (strain 168)), P80244; purified B. subtilis ClpP, FRET peptide cleavage, 20 min; hit rate 1.9% among 340,000; active = well fitted falling curve with a large enough effect; inconclusive = small, poorly fitted or top-dose-only effect; inactive = no such curve, though single readings can be large or run the other way; note: potency is the fitted concentration of half-maximal effect; the source files actives as falling curves though it sought activators and does not explain the sign; nearly all actives have a fitted effect of over 65% in size; many hits overshoot -100%
Target sequence (P80244 whole entry, looked up): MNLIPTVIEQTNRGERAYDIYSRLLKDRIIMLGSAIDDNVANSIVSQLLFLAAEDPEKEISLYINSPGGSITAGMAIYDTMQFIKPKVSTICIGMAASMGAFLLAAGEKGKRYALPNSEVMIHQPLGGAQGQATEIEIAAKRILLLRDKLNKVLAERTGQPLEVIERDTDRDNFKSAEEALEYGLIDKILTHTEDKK
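Purified B. subtilis ClpP, 10 microg/mL final in Tris/HCl pH8 with KCl, BSA, glycerol and Tween-20, cleaved an Abz/nitrotyrosine-quenched decapeptide. Fluorescence (ex 320, em 430) was read at 0 and 20 min at room temperature. Delta was normalized to 5.8 microM ADEP and DMSO/no-enzyme controls.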
TRPML1 agonist: activates the human TRPML1 channel; AID 624414; hit rate 0.12% among 410,000; TRPML1-expressing cells, Ca2+ dye fluorescence, FDSS; host cell line not named in the record; reference of the full effect not given here; activation, % (concentration not given with the values); Q9GZU1; in the data active = activation above about 50%; inconclusive = about 30% to 50%; inactive = below about 30%; note: 0% is about no effect; the text of the record puts the active cut at 80%
Target sequence (Q9GZU1 whole entry, looked up): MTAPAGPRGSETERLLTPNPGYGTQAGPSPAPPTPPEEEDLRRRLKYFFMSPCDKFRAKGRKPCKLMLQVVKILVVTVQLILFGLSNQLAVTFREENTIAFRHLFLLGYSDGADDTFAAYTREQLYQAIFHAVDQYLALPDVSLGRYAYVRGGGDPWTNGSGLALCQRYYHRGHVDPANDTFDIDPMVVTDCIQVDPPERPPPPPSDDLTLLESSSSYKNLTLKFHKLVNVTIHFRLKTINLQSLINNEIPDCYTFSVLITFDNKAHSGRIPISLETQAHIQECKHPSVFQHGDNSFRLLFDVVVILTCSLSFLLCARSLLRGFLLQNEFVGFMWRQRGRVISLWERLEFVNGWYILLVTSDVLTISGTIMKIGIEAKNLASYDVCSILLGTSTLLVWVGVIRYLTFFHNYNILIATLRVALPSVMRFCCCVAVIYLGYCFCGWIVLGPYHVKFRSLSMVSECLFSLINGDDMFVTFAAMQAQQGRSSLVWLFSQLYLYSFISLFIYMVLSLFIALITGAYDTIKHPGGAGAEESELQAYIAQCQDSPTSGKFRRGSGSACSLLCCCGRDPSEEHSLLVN
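In this qHTS format, compounds were pin-transferred onto Ca8-dye-loaded TRPML1-DL cells induced with Tet overnight, and intracellular Ca2+ fluorescence was recorded kinetically for 110 s after a 10 s baseline. A subsequent 4uM final 54-4 (EC80) addition followed by a second 110 s read served as the antagonist phase.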
Menin MLL FP FL: menin-MLL binding inhibition, fluorescein peptide; FP activity change, % at 61.4 µM; 290,000 tested, under 10 active; Fluorescence polarization, fluorescein-MLL peptide displacement from menin; inconclusive = falling polarisation curve, or a change in total fluorescence; inactive = total fluorescence flat and polarisation flat or rising; no compound was filed as active; the % refers to the polarisation; negative = inhibition;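 note: % of control where 0% means no effect; inhibitors lower the polarisation; unlabelled MLL peptide was the positive control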
gsp antag: antagonizes gsp, the McCune-Albright syndrome mutation. gsp-mutant cells, cAMP HTRF, 30 min; control for the full effect not named in the record. Potency, µM (titrated, usually from 76.9 µM), for inactives: at the highest dose activity change, negative = inhibition, usual class: inhibitors. hit rate 0.4% among 340,000; active = falling curve of any shape with a large fitted effect; inconclusive = falling curve, mostly with a smaller effect; inactive = flat or rising curve; cell line not stated here;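 note: intracellular cAMP measured with PDE inhibitor Ro 20-1724 present during compound exposure; potency is the fitted concentration of half-maximal effect; % is set by controls: 0 for no effect and ±100 for the full control effect; nearly all actives have a fitted effect of over 65% in size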
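HTRF cAMP measurement after 30 min RT detection following 30 min, 37C compound treatment alongside […] (added as 300 uM solution) in G418-selected cells seeded at 2000/well and grown 16–24 h.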
gsp agonist: activates gsp, the McCune-Albright syndrome mutation; gsp mutant cells, cAMP HTRF, 30 min; control for the full effect not named in the record; Potency, µM (highest dose often 76.9 µM), for the others: top-dose activation (cAMP increase), hits mostly activators; hit rate 0.13% among 340,000; active = well fitted activation curve with a large enough effect; inconclusive = small, poorly fitted or top-dose-only effect, or another doubt; inactive = no such curve, though single readings can be large or run the other way; cell line not stated here;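 note: phosphodiesterase inhibitor Ro 20-1724 added with compounds to block cAMP breakdown; potency is the fitted concentration of half-maximal effect; nearly all actives have a fitted effect of over 60% in size; about a fifth of the inactives were tested at one dose only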
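Cells stably selected in G418 were plated at 2000/well, grown 16-24 hr, then given compounds in DMSO with the PDE inhibitor […] (300 uM solution added) for 30 min at 37C; cAMP was read by HTRF.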
TRPML1 inh: human mucolipin-1 channel inhibition. Q9GZU1. TRPML1-inducible cells, Ca2+ dye fluorescence, FDSS; active compounds read low; inhibition of EC80 agonist-evoked calcium signal. activity change, negative = inhibition, % (test concentration not listed). hit rate 0.02% among 390,000. AID 624415; in the data active means activity change below about -50%; inconclusive means about -30% to -50%; inactive means above about -30%;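 note: stimulus is agonist 54-4 at its EC80 concentration; % is set by controls: 0 for no effect and ±100 for the full control effect; compound concentration not given in the record; the text of the record puts the active cut at -80%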
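Tet-induced TRPML1-DL cells loaded with Ca8 no-wash calcium dye were read kinetically on FDSS. Compound addition was followed by EC80 agonist 54-4 (4 uM final); inhibition was read over 110 s.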
Numbers without * were called inactive; ? = inconclusive; nt = no result given; & = joins results of further samples; [ ] = another dose, or the depositor's remark.

molecule,ClpP mod,TRPML1 agonist,Menin MLL FP FL,gsp antag,gsp agonist,TRPML1 inh
COc1ccc(CNC(=O)N[C@@H](CC(C)C)C(=O)O)cc1OC,0.1%,0.0,-1.7,3%,-13%,17
Cn1c(=O)c(C(=O)CSc2nncs2)c(N)n(Cc2ccccc2)c1=O,-4.3%,0.4,6.3,-1%,-6%,-7
O=C(Nc1c2c(nn1-c1ccccc1)CS(=O)(=O)C2)c1cccs1,-2.3%,0.9,nt,-3%,-23%,-4
Nn1c(SCC(=O)Nc2ccccc2F)nc2ccccc2c1=O,-2.3%,1.0,-2.8,2%,1%,18
Cc1ccc2nc(-c3ccc(SCC(=O)Nc4ccc5c(c4)OCCO5)nc3)[nH]c2c1,304%,3.0,2.9,?,-48%[inhibitor],3
Oc1c(C(c2ccccc2)N2CCOCC2)ccc2ccccc12 (stereo not drawn),-13%,-0.2,nt,-3%,17%[15.4 µM],3
O=S(=O)(c1ccccc1)C1CC1(c1ccccc1)c1ccccc1 (stereo not drawn),-2.0%,0.7,nt,-20%,-17%,22
COCCN(CCOC)c1nc(-c2ccccc2)nc2ccccc12,-1.2%,1.9,-8.2,?,0%,-8
O=C(Nc1ccc(C(F)(F)F)cc1)c1ccccc1,1.0%,-0.7,nt,8%,1%,32
CN(C)/C=C1/NC(=S)NC1=O,nt,-1.0,-5.2,-49%,-6%[15.4 µM],3
CCOC(=O)c1ccc(Nc2nnc3nc(C)cc(C)n23)cc1,-7.2%,-1.1,0.9,-3%,-45%[inhibitor],-13
CCOC(=O)c1[nH]c(C)c(/C(O)=C2\C(=O)C(=O)N(CCN(C)C)C2c2cccc(OC)c2OC)c1C (stereo not drawn),2.5%,1.8,0.6,6%,9%,18
CSc1cccc(NS(=O)(=O)c2cc(Br)cnc2N)c1,1.2%,0.6,nt,-7%,-9%,14
CCOc1ccc(NC(=O)CN(C)C(=O)c2ccccc2SCC(=O)N2CCCC2)cc1OCC,-5.4%,0.0,nt,8%,-38%[inhibitor],-3
OCc1ccnc2c(O)cccc12,-2.9%,0.5,9.1,11%,1%,0
Cc1nn(-c2ccc(F)cc2)c(Cl)c1/C=N/NC(=O)c1cccs1,15%,0.4,-1.8,12%,-8%,-1
O=[N+]([O-])c1cccc(S(=O)(=O)Nc2ccc(-c3ccc(N4CCCC4)nn3)cc2)c1,-6.6%,1.4,nt,-34%,1%[15.4 µM],9
CCCc1cc(C(=O)N2CCCC(C(=O)c3ccc(Cl)cc3)C2)n(C)n1 (stereo not drawn),-0.2%,1.1,nt,-10%,?,1
COc1ccc(CNC(=S)NCc2ccc(OC)cc2)cc1,nt,0.9,2.7,1%,-39%[inhibitor],-8
C=C(C)CNC(=S)N1CCN(C(c2ccccc2)c2ccccc2)CC1,nt,-0.6,7.7,nt,-7%[15.4 µM],-2
Cc1cc(C)cc(Nc2ncnc3c2nc2n3CCCC2)c1,-5.5%,1.6,nt,nt,nt,0
S=C(NC1CCCCC1)NC1CC2CCC(C1)N2Cc1ccccc1 (stereo not drawn),nt,0.1,-9.4,15%,11%[15.4 µM],20
CC(Oc1ccccc1)C(=O)N1CCN(S(=O)(=O)c2ccc(OC(F)(F)F)cc2)CC1 (stereo not drawn),2.2%,0.0,nt,nt,4%,-3
CC(C)(C)c1nc2sc3c(c2c(=O)o1)CCCC3,-0.5%,0.0,3.7,6%,-29%,5
COc1ccc(-n2c3c(cc(-c4nc(-c5ccc(Cl)cc5)cs4)c2=O)C(=O)CC(C)(C)C3)cc1,?,0.3,nt,nt,nt,45
COc1cc(C(=O)NC(=S)Nc2ccc([N+](=O)[O-])cc2C)cc(OC)c1OC,1.8%,-0.5,-0.3,?,-38%[inhibitor],-1
COc1ccc(S(=O)(=O)Cc2ccc(C(=O)NC3CCC(C)CC3)o2)cc1 (stereo not drawn),nt,-0.1,1.3,3%,-3%,-4
CC(C)N1C(=O)CCC1C(=O)NCc1ccco1 (stereo not drawn),nt,-0.5,-0.6,10%,2%[15.4 µM],-8
O=C(NCc1ccncc1)C(=O)NCC1OCCN1S(=O)(=O)c1ccc(Br)cc1 (stereo not drawn),-4.5%,0.6,nt,4%,-3%,-12
CN1CN(C)C(c2ccncc2)=C1c1ccncc1,0.3%,-0.7,0.2,4%,-21%,1
OCCN(Cc1ccccc1)c1ncnc2sccc12,nt,-0.8,3.7,-11%,4%[15.4 µM],23
Cc1ccc(C)n1-c1nnc(N2CCC(C(=O)Nc3ccccc3Br)CC2)s1,11%,0.6,nt,nt,nt,7
Cc1cccc(NC(=O)C(=O)NCC(c2cccnc2)N2CCOCC2)c1 (stereo not drawn),-1.1%,1.0,nt,nt,nt,12
O=C(COc1ccccc1Cl)NC(=S)Nc1cccc(NC(=O)c2ccccc2Cl)c1,-0.9%,-0.4,5.2,1%,-6%,11
Cc1ccc(C)c(S(=O)(=O)N2CCCC2CNC(=O)C(=O)NCCN2CCOCC2)c1 (stereo not drawn),1.2%,-0.4,nt,11%,2%,7
O=C(Cn1cc(S(=O)(=O)Cc2ccccc2F)c2ccccc21)NCc1ccccc1,4.2%,2.0,nt,nt,nt,7
CCOc1ccc(OCc2ccc(C(=O)N3CCOCC3)cc2)cc1,-0.9%,-0.1,-0.5,-1%,24%,7
COc1ccc(CNC(=O)C[C@@H]2C[C@H]3c4cc(NC(=O)C5CCC5)ccc4O[C@H]3[C@@H](CO)O2)cc1,-2.7%,0.1,nt,nt,-1%,-4
COc1ccccc1S(=O)(=O)c1ccccc1[N+](=O)[O-],-1.2%,-0.4,0.8,-2%,-5%,24
Cc1cc(O)c(C(c2ccccc2)N2CCCCC2)c(=O)n1Cc1ccco1 (stereo not drawn),1.1%,1.0,nt,nt,nt,19
CC1CCCN(CCCNC(=O)c2ccc3c(c2)N(Cc2ccc(Cl)cc2)C(=O)c2ccccc2S3(=O)=O)C1 (stereo not drawn),-4.7%,2.2,nt,nt,nt,1
COc1ccc(/C=C/C(=O)OCC(=O)Nc2cc(C(F)(F)F)ccc2Cl)cc1,-5.0%,1.0,3.1,3%,?,6
c1cnc(N2CCN(Cc3ccc4c(c3)OCO4)CC2)cn1,nt,-0.6,-2.8,12%,9%,14
C=CCOc1ccc(-c2nc3c(c(=O)[nH]c(=O)n3CCCC)n2C)cc1Br,nt,0.5,2.1,1%,3%,48
Cn1nnnc1SCCNCc1ccncc1,0.3%,0.1,9.8,18%,?,33
CC1(C)NC(=O)N(CC(=O)OCC(=O)Nc2c(Br)cc([N+](=O)[O-])cc2Br)C1=O,0.4%,3.6,nt,13%,26%,-21
COc1ccc(C(=O)N2CCC(c3c[nH]c4ccccc34)(c3c[nH]c4ccccc34)CC2)cc1,0.1%,-0.4,nt,nt,nt,-3
O=C(COC(=O)c1ccccc1O)NC(c1ccccc1)c1ccccc1,nt,1.5,nt,14%,?,-1
CCCOc1ccc(-c2c(C(=O)N/N=C/c3ccc(OC)cc3)nnn2-c2nonc2N)cc1,?,-0.1,0.8,-25%,-30%[inhibitor],-13
COC(=O)Nc1ccc(S(=O)(=O)N2CCCC(C(=O)N3CCCCCC3)C2)cc1 (stereo not drawn),-11%,4.2,-1.7,-18%,-12%,8

Reprinted at random: 2 entries already listed.
molecule,ClpP mod,TRPML1 agonist,Menin MLL FP FL,gsp antag,gsp agonist,TRPML1 inh
Cc1ccc(C)c(S(=O)(=O)N2CCCC2CNC(=O)C(=O)NCCN2CCOCC2)c1 (stereo not drawn),1.2%,-0.4,nt,11%,2%,7
COc1ccc(CNC(=O)N[C@@H](CC(C)C)C(=O)O)cc1OC,0.1%,0.0,-1.7,3%,-13%,17

(next part)
molecule,ClpP mod,TRPML1 agonist,Menin MLL FP FL,gsp antag,gsp agonist,TRPML1 inh
S=C(NC1CCCCC1)N1CCN(Cc2ccccc2Cl)CC1,0.7%,2.3,1.1,4%,?,31
COc1ccccc1C(=O)NC(=O)CSc1ccc(C)c(C)c1,1.5%,1.6,nt,-19%,-3%[15.4 µM],32
Cc1cc2nnc(SCC(=O)N3CCN(c4ccccc4)CC3)n2c(N)n1,1.0%,11,0.0,1%,8%,-7
O=C(COC(=O)CCC(NC(=O)OCc1ccccc1)C(=O)OCC(=O)Nc1ccccc1)Nc1ccccc1 (stereo not drawn),-1.1%,0.1,3.3,-24%,22%[15.4 µM],10
COc1cccc(CN(C(=O)c2ccccc2)C2CCS(=O)(=O)C2)c1 (stereo not drawn),0.4%,-1.1,0.3,6%,?,-5
C#CCOCCOCCOCCNc1nc(N2CCN(C(=O)Cn3cc(CCO)nn3)CC2)nc(N2CCN(C(=O)[C@H](CCCCN)n3cc(CCCC)nn3)CC2)n1,0.1%,2.1,nt,5%,nt,3
CCCC1(C(=O)OC)NC(c2ccc(OC)c(OC)c2)C2C(=O)N(c3cccc(C(C)=O)c3)C(=O)C21 (stereo not drawn),nt,-0.5,2.2,-1%,3%,-4
COc1ccc(C(=O)NNC(=O)Cc2ccc(-c3ccccc3)cc2)cc1OC,2.2%,0.3,0.4,4%,6%,-11
COc1ccc(C(CCN2CCN(c3ccccc3)CC2)c2c(OC)cc(OC)c3c(-c4ccccc4)cc(=O)oc23)cc1 (stereo not drawn),-10.0%,0.1&0.6,3.3&6.0,12%,nt,-8&8
CCCCNC(=O)CO/N=C(\C)c1cc2ccccc2o1,1.5%,-0.5,-26,6%,-47%[inhibitor],-17
Cc1cccc(-n2c(C)n[nH]c2=S)c1C,-1.1%,-0.1,1.3,13%,-1%,1
CN(C(=O)CSc1nc2ccc(NC(=O)COc3ccccc3)cc2s1)c1ccccc1,-4.2%,3.5,nt,nt,nt,9
COc1cc(-c2ccno2)ccc1S(=O)(=O)N1CCN(c2cc(C)ccc2C)CC1,-8.8%,-0.5,nt,nt,nt,23
Cc1csc(NC(=O)CSc2nnc(NC(=O)COc3ccccc3)s2)n1,0.4%,0.1,3.1,-18%,-5%,-2
CCOC(=O)c1ccc(Nc2nc(-c3cccnc3)nc3ccccc23)cc1,28µM*,2.4,7.1,-16%,18%,14
COc1cccc(C(c2nnnn2C(C)(C)C)N2CCN(C3CCCCC3)CC2)c1OC (stereo not drawn),-2.4%,-0.2,1.4,-11%,0%,6
